ClpP mod = qHTS Assay for Activators of ClpP; ATP-dependent Clp protease proteolytic subunit (Bacillus subtilis (strain 168)), P80244; purified B. subtilis ClpP, FRET peptide cleavage, 20 min; Potency, µM (titrated, usually from 57.5 µM), for the others: at the highest dose activity change, negative = active; 340,000 compounds, 1.9% hits; AID 651965, 2013; active = well fitted falling curve with a large enough effect; inconclusive = small, poorly fitted or top-dose-only effect; inactive = no such curve, though single readings can be large or run the other way; further: potency means the concentration at half of the fitted maximal effect; the source files actives as falling curves though it sought activators and does not explain the sign; nearly all actives have a fitted effect of over 65% in size; many hits overshoot -100%
Target sequence (P80244 whole entry, looked up): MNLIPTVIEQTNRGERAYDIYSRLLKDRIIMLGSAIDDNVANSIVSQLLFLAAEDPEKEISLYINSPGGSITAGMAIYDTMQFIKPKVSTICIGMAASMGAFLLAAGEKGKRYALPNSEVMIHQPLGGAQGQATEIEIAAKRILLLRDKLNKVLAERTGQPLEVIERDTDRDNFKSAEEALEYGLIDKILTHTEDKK
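FRET quenching reversal measured ClpP activation: 10 microg/mL B. subtilis ClpP at pH 8 with the FRET-FV decapeptide, read at 430 nm after 320 nm excitation. The 20-min minus 0-min signal was scaled between DMSO/no-enzyme wells and ADEP (5.8 microM final).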
gsp antag = antagonists of gsp mutant (McCune-Albright syndrome); gsp-mutant cells, cAMP HTRF, 30 min; control for the full effect not named in the record; Potency, µM (series often up to 76.9 µM), without a hit: top-dose activity change, negative = inhibition, hits mostly inhibitors; 340,000 compounds, 0.4% hits; AID 624288; active = falling curve of any shape with a large fitted effect; inconclusive = falling curve, mostly with a smaller effect; inactive = flat or rising curve; cell line not stated here;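 further: intracellular cAMP measured with PDE inhibitor Ro 20-1724 present during compound exposure; potency means the concentration at half of the fitted maximal effect; on the % scale 0 is the no-effect control and ±100 the full control effect; nearly all actives have a fitted effect of over 65% in size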
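Cells, 2000/well, grown 16–24 h in DMEM 10% FBS with 0.5 mg/ml G418, then compounds plus […] (300 uM addition stock), 30 min at 37C. cAMP read by HTRF (cAMP-d2 and anti-cAMP antibody-K in lysis buffer) after 30 min RT.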
gsp ag = agonists of gsp mutant (McCune-Albright syndrome); Potency, µM (top dose mostly 76.9 µM), without a hit: at the top dose activation (cAMP increase), most hits filed as activators; gsp mutant cells, cAMP HTRF, 30 min; control for the full effect not named in the record; AID 624287; 340,000 compounds, 0.13% hits; active = well fitted activation curve with a large enough effect; inconclusive = small, poorly fitted or top-dose-only effect, or another doubt; inactive = no such curve, though single readings can be large or run the other way; cell line not stated here;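 further: phosphodiesterase inhibitor Ro 20-1724 added with compounds to block cAMP breakdown; potency means the concentration at half of the fitted maximal effect; nearly all actives have a fitted effect of over 60% in size; about a fifth of the inactives were tested at one dose only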
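Cells in DMEM/10% FBS with G418 were pretreated with compounds in DMSO plus […] (300 uM stock) for 30 min at 37C. cAMP was measured by HTRF (cAMP-d2 plus anti-cAMP antibody-K) after 30 min at room temperature.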
TRPV1 PAM = enhances activation of the human vanilloid receptor TRPV1 | Q8NER1 | TRPV1-expressing cells, Fluo-8 calcium influx, capsaicin EC20 potentiation; host cell line not named in the record; control for the full effect not named in the record | potentiation, % at 8.33 µM | 320,000 compounds, 0.02% hits; active means potentiation above 80%; inconclusive means 30% to 80%; inactive means below 30%; further: 0% is about no effect
Target sequence (Q8NER1 whole entry, looked up): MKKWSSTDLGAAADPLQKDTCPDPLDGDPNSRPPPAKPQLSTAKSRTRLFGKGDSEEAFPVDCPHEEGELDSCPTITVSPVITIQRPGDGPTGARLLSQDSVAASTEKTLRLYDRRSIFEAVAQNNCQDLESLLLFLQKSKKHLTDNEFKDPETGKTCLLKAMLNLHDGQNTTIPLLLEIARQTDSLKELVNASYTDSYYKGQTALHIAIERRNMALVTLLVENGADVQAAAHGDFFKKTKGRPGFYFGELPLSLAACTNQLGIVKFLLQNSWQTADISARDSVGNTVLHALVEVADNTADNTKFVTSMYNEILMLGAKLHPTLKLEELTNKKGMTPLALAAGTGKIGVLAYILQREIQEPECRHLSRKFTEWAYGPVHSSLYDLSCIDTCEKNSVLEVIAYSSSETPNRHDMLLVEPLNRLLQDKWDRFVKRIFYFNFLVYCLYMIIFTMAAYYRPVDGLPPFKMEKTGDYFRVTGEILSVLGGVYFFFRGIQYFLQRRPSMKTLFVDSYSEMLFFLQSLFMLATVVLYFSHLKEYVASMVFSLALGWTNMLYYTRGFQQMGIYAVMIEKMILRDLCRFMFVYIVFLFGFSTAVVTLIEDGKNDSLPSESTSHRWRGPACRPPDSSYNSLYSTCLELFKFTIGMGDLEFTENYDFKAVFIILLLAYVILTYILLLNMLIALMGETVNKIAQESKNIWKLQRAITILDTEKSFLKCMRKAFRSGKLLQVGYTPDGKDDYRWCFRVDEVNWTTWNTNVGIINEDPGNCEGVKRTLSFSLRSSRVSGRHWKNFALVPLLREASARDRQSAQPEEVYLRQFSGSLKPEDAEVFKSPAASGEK
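Cells expressing TRPV1 were dye-loaded with Fluo-8 and read kinetically: 10 s baseline, 3 min after compound (agonist portion), then 2 min after EC20 capsaicin (allosteric enhancer portion). Calcium-bound dye fluorescence at 480/520 nm.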
CtBP-E1A inh = CtBP/E1A binding inhibition | AlphaScreen GST-E1A/His-CtBP binding, 1536-well; hits give low values; control for the full effect not named in the record | activity change, % (test concentration not listed) | 340,000 compounds, 0.49% hits | AID 651724; in the data active means activity change below about -65%; inconclusive means about -30% to -65%; inactive means above about -30%; further: on the % scale 0 is the no-effect control and ±100 the full control effect
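Steps: dispense buffer (Tris pH 8.0, NaCl 300 mM, TCEP 1 mM, BSA, Tween 20); add 5X protein mix (GST-E1A, His-CtBP, 125 nM each); pin 23 nL compound; 2 h at 37 °C, dark; add 5X beads (50 ug/mL); 1 h; read.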
Menin MLL FP FL = displaces fluorescein MLL peptide from human menin | Fluorescence polarization, fluorescein-MLL peptide displacement from menin | FP activity change, % at 61.4 µM | 290,000 tested, under 10 active; inconclusive = falling polarisation curve, or a change in total fluorescence; inactive = total fluorescence flat and polarisation flat or rising; no compound was filed as active; the % refers to the polarisation; negative = inhibition;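 further: % of control where 0% means no effect; inhibitors lower the polarisation; unlabelled MLL peptide was the positive control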
Sfp PPTase inh = inhibitors of Bacillus subtilis Sfp phosphopantetheinyl transferase | Biochemical Sfp PPTase activity, qHTS | Potency, µM, without a hit: max response, negative = inhibition, usual class: inhibitors | 310,000 compounds, 3.5% hits | AID 1490; active means well fitted inhibition curve with a large enough effect; inconclusive means small, poorly fitted or top-dose-only effect, or another doubt; inactive means no such curve, though single readings can be large or run the other way;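 further: the enzyme is Sfp with the accession as filed and its product quenches rhodamine fluorescence; potency means the concentration at half of the fitted maximal effect; 0% = enzyme reaction without inhibitor and -100% = no enzyme wells; top concentration of the series not given in the record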
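Reaction rates are the 30-min fluorescence difference (ex 525, em 598 nm) in wells containing 15 nM Sfp, 5 uM rhodamine-CoA and 12.5 uM BHQ-2-YbbR at pH 7.6 with 10 mM MgCl2.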
Starred values were filed as active, the others as inactive; ? = inconclusive; · = no result given; & = joins results of further samples; [ ] = dose if it differs, or a comment.

SMILES | ClpP mod | gsp antag | gsp ag | TRPV1 PAM | CtBP-E1A inh | Menin MLL FP FL | Sfp PPTase inh
COc1cccc(Cn2cnc3c([N+](=O)[O-])c(C)c(C)cc32)c1 | · | -15% | 1%[15.4 µM] | ? | · | -1.7 | 12%
C[C@H](O)[C@@H]1CN2CCc3c([nH]c4ccc(-c5ccc6c(c5)OCO6)cc34)[C@@H]2C[C@@H]1N(C)C(=O)NC1CCCCC1 | -4.7% | · | -89%[inhibitor] | · | -20 | · | ·
CCC(C)(C)NC(=O)C(c1cccc(OC)c1OC)N(C(=O)CCC(=O)Nc1cc(C)on1)C(C)C (stereo not drawn) | -3.1% | -5% | 6%[15.4 µM] | 2 | 16 | 0.8 | -2%
COc1ccc2nc(SCC(=O)c3ccco3)[nH]c2c1 | 0.7% | -6% | 13% | 4 | 10 | 0.0 | -4%
COC(=O)C1=C[C@@H](C(=O)OC)C2C3=C(C(=O)C24CCCCC4)[C@H](C)n2c(=O)n(C)c(=O)n2[C@@H]3C1 (stereo partly drawn) | 1.7% | -10% | · | · | 1 | 3.2 | 14%
C/C(=N/NC(=O)c1sc(=S)n(C)c1C)c1ccccc1 | -0.2% | 11% | -33%[inhibitor] | -13 | 4 | 1.1 | 11%
CCN1C(=O)[C@H]2[C@@H](c3ccc(-c4ccc(C(C)=O)cc4)c(OC)c3)N[C@@](Cc3ccccc3)(C(=O)OC)[C@H]2C1=O | -15% | -20% | -4% | -12 | -12 | · | ·
Oc1c(Br)cc(CNC2CCCCC2)cc1Br | · | 12% | -13% | · | 0 | · | ·
COc1ccc(-n2cc(C#N)c(=O)[nH]c2=O)cc1 | · | -5% | -4% | -15 | 6 | 2.8 | 13%
O=C(CSc1nc(O)c(C2CCCCC2)c(=O)[nH]1)Nc1ccc(Cl)cc1 | -1.0% | 4% | -22% | ? | 5 | -2.7 | 25%
Cc1ccnc(NC(=O)CNC(=O)c2ccc3ccccc3c2)c1 | -5.6% | -4% | -17% | -7 | 0 | · | ·
Cn1c(NC(=O)c2cc(-c3ccc4c(c3)OCO4)nc3ccccc23)cc(=O)n(C)c1=O | -3.1% | -15% | -8% | -7 | -2 | 1.4 | -4%
COc1ccc(O)c(-c2cn[nH]c2-c2cccs2)c1 | -26% | 2% | 8% | 14 | 0 | -0.9 | 7%
Cc1ccc(Nc2c(O)nc[nH]c2=O)cc1C | · | 0% | -9% | · | 4 | · | ·
O=C(Nc1ccc2c(c1)OCCO2)C1CCCN(S(=O)(=O)c2cccnc2)C1 (stereo not drawn) | -1.3% | 1% | ? | 4 | 3 | 3.0 | 11%
Cc1ccc(C(=O)NCCC(=O)N2CCC3(CC2)NCCc2[nH]cnc23)cc1C | -2.4% | 11% | -43%[inhibitor] | 9 | 1 | -0.5 | 0%
CCN(CC)CCNC(=O)c1cccc(NC(=O)C(=O)c2ccccc2NC(C)=O)c1 | · | -3% | 3%[15.4 µM] | 12 | -8 | 0.4 | 15%
Cc1cc(C(=O)OCC(=O)N(C)C2CCS(=O)(=O)C2)c(C)n1-c1ccccc1 (stereo not drawn) | -0.6% | 8% | -3% | -5 | 2 | 1.8 | 11%
C[C@H]1Cn2cnc(C(=O)NCC(=O)OC(C)(C)C)c2C(=O)N1 | 0.2% | · | -2% | · | -4 | · | ·
CC(C)NC(=O)/C(C#N)=C/c1cccc(NC(=O)c2ccccc2Cl)c1 | -9.0% | 7% | -6%[15.4 µM] | 15 | -8 | 2.7 | 7%

Compounds above containing a cyano group:
SMILES | ClpP mod | gsp antag | gsp ag | TRPV1 PAM | CtBP-E1A inh | Menin MLL FP FL | Sfp PPTase inh
COc1ccc(-n2cc(C#N)c(=O)[nH]c2=O)cc1 | · | -5% | -4% | -15 | 6 | 2.8 | 13%
CC(C)NC(=O)/C(C#N)=C/c1cccc(NC(=O)c2ccccc2Cl)c1 | -9.0% | 7% | -6%[15.4 µM] | 15 | -8 | 2.7 | 7%

New compounds follow.
SMILES | ClpP mod | gsp antag | gsp ag | TRPV1 PAM | CtBP-E1A inh | Menin MLL FP FL | Sfp PPTase inh
O=C(CCN1CCN(c2ccccc2)CC1)NNC(=S)Nc1ccccc1 | -0.8% | 12% | 1% | 13 | · | 1.3 | 22%
C(=N\Nc1ccc2nncn2n1)/c1ccco1 | -10% | -2% | 1%[15.4 µM] | -1 | ? | -1.9 | 9%
Cc1ccccc1Nc1nc(N2CCOCC2)nc(N2CCOCC2)n1 | -1.6% | 2% | ? | -22 | 1 | -1.9 | 15%
O=C(CSc1nnc(SCc2ccc(Cl)cc2)s1)N1CCN(C(=O)c2ccco2)CC1 | -3.7% | -4% | -6% | 6 | -8 | -1.4 | 5%
CC1C(O)=C(c2nc3ccccc3[nH]2)C(=N)N1c1ccccc1 (stereo not drawn) | -6.2% | -1% | -19% | -19 | 2 | 2.3 | 24%
O=C1C(C=NCCCN2CCOCC2)=C(O)c2ccccc21 | 0.0% | -4% | 15% | 2 | 5 | 0.2 | 5%
C#CCNC(=O)C1=C[C@H](c2ccc3c(c2)OCO3)C[C@H](OCCCCO)O1 | -12% | -12% | -21% | · | · | · | ·
CCCOc1ccccc1Cn1c(=O)oc2ccc(C)cc21 | -0.2% | -15% | 4% | -8 | 42 | 5.6 | -16%
CCN(c1ccccc1)S(=O)(=O)c1ccc(OC)c(NC(=O)Cn2cnc3c2c(=O)n(C)c(=O)n3C)c1 | · | -19% | -6%[15.4 µM] | -6 | -9 | 0.5 | 12%
CCNc1nc(NCC)n2c(SCC(=O)O)nnc2n1 | -0.2% | 17% | -13% | 9 | -1 | 2.9 | 15%
CC1N(C)c2cc(NC(=O)c3cccs3)c(P(=O)(Nc3ccc([N+](=O)[O-])cc3)N3CCOCC3)cc2C1(C)C (stereo not drawn) | · | -9% | 10% | 1 | -14 | 0.0 | 16%
CC(C)CC(=O)Nc1ccc(S(=O)(=O)N2CCCC2)cc1 | -1.6% | 0% | -5% | -12 | 2 | 2.8 | 15%
Cc1ccc(-c2cc(C(F)F)n3ncc(C(=O)NN4CCCCC4)c3n2)cc1 | · | ? | -15%[15.4 µM] | 2 | -15 | -1.8 | 1%
COc1ccccc1-c1oc2ccccc2c1C#CC1(O)CCCCC1 | 3.2% | -17% | · | · | 2 | · | ·
CNc1ccccc(-c2ccc3cc4c(cc3n2)OCO4)c1=O | -5.0% | 6% | -2% | 0 | -4 | ? | ?
COc1ccc(CN([C@H](C)CO)S(=O)(=O)N(Cc2ccccc2)[C@H](CO)C(C)C)cc1 | -1.3%&0.8% | -4% | 25% | -12 | 1 | · | ·
CC(C)(C)n1nc2c(c1NC(=O)c1cc([N+](=O)[O-])ccc1Cl)CS(=O)(=O)C2 | 1.2% | -11% | ? | 8 | · | -1.4 | 12%
COc1ccc(C(=O)Nc2ccc(N3CCCCCC3)cc2)cc1S(=O)(=O)N1CCOCC1 | -0.7% | -30% | 14% | -11 | ? | · | ·
COc1cccc(NC(=O)Nc2ccc(CC(=O)O)cc2)c1 | · | 5% | 10% | 18 | 19 | -2.4 | -11%
CCn1cc(C(=O)O)c(=O)c2cc(F)c(N3CCN(C(=S)NC(=O)c4ccc(F)c(F)c4)CC3)cc21 | 3.9% | -3% | -16% | -11 | · | -0.8 | -2%
C=C1CCC[C@]2(C)C[C@H]3OC(=O)C(CN(C)CC(OC)OC)[C@H]3CC12 (stereo partly drawn) | · | 6% | -19% | 25 | 0 | -0.3 | 6%
Cc1ccc(-c2csc(NS(=O)(=O)c3cccc(F)c3)n2)o1 | -8.0% | -7% | 12%[15.4 µM] | · | -4 | · | ·
O=C(NNC(=S)NCc1ccc(Cl)cc1)c1cccnc1 | -0.6% | -1% | 23% | 10 | 5 | -1.1 | 7%
COc1cccc(S(=O)(=O)N(C)C[C@@H]2Oc3ncc(C#CCN(C)C)cc3C(=O)N([C@H](C)CO)C[C@H]2C)c1 | -3.0% | · | ? | · | -20 | · | ·
O=C(NCCc1ccccc1)c1ccc(CS(=O)(=O)c2ccc(Cl)cc2)o1 | 0.1%&1.8% | 5% | 0% | -14 | · | -1.2 | 7%
O=C(COc1ccccc1)Nc1ccc([N+](=O)[O-])cc1 | 0.4% | -21% | -1% | -14 | 4 | -1.6 | -5%
CC(C)CCNC(=O)CN(CC1CCCO1)C(=O)CCC(=O)Nc1nccs1 (stereo not drawn) | -3.1% | 5% | -15% | -5 | -4 | 1.1 | -5%
O=C(C=Cc1ccccc1)NCCNC(=O)C=Cc1ccccc1 | 1.0% | 9% | ? | · | 6 | · | ·
COC(=O)c1ccc(NC(=O)Cn2nc(C(=O)Nc3ccc(C)cc3)ccc2=O)cc1 | 1.6%&-0.4% | 2% | -21% | ? | · | · | 11%
Cc1ccc(C)c(NC(=O)CN2C(=O)NC(C)(c3ccc4c(c3)OCCO4)C2=O)c1 (stereo not drawn) | 1.3% | -1% | -23% | -15 | 2 | · | ·
COc1cc(C)ccc1OCC(=O)Nc1nnc(C2CC2)s1 | 0.3% | -5% | 1% | · | 27 | · | ·
CCCCCn1c(=O)[nH]c2cc(C(=O)O)ccc2c1=O | 22µM* | 5% | -8% | 10 | -7 | 1.1 | -18%
CC(=O)N1CC(=O)N(OCc2ccccc2)C1c1ccc(Cl)cc1Cl (stereo not drawn) | -1.6% | -1% | -1% | -7 | -23 | -3.0 | 7%
CCOc1cccc(-c2c(C(=O)N/N=C/c3ccc(C)o3)nnn2-c2nonc2N)c1 | 8.9% | -6% | -1% | 8 | -4 | · | -11%

Part of the list above in order of count of non-hydrogen atoms, ascending.
SMILES | ClpP mod | gsp antag | gsp ag | TRPV1 PAM | CtBP-E1A inh | Menin MLL FP FL | Sfp PPTase inh
O=C(COc1ccccc1)Nc1ccc([N+](=O)[O-])cc1 | 0.4% | -21% | -1% | -14 | 4 | -1.6 | -5%
Cc1ccc(-c2csc(NS(=O)(=O)c3cccc(F)c3)n2)o1 | -8.0% | -7% | 12%[15.4 µM] | · | -4 | · | ·
COc1cccc(S(=O)(=O)N(C)C[C@@H]2Oc3ncc(C#CCN(C)C)cc3C(=O)N([C@H](C)CO)C[C@H]2C)c1 | -3.0% | · | ? | · | -20 | · | ·

Screens deposited in PubChem BioAssay by National Center for Advancing Translational Sciences (NCATS).
